BmaI1 enzyme: BmaI1 acyl-homoserine lactone synthase inhibition – biochemical, fluorescence intensity, with counterscreen (AID 720554); BmaI1 enzyme assay, fluorescence intensity; active compounds read high; test concentration not given here; a few actives read low; strong numbers were not always called active; inhibition, %; 12,000 compounds, 0.4% hits;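 active means both replicates within 2 robust z-scores of the inhibited control and a quiet counterscreen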;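 further: 0% = uninhibited enzyme and 100% = inhibited control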
BmaI1 enzyme counterscreen: also measured in BmaI1 enzyme; calls as there; inhibition, %; measured here: counterscreen; design of the counterscreen not given here;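 first of two replicates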
Starred values were filed as active, the others as inactive; & = joins results of further samples. A portion of the library; the hit share may differ from the screen's.

Preview, three compounds:
SMILES	BmaI1 enzyme	BmaI1 enzyme counterscreen
CCc1ccc(-c2nn(-c3ccccc3)cc2/C=C2\SC(N)=NC2=O)cc1	6	4
Cc1ccc(C(=O)OC(C)C(=O)Nc2ccc(S(N)(=O)=O)cc2)s1 (stereo not drawn)	4	10
O=C(c1cccc(C(F)(F)F)c1)N(c1ccccn1)C1CCCCC1	0	-2

All compounds of this part, from the start:
SMILES	BmaI1 enzyme	BmaI1 enzyme counterscreen
CCc1ccc(-c2nn(-c3ccccc3)cc2/C=C2\SC(N)=NC2=O)cc1	6	4
Cc1ccc(C(=O)OC(C)C(=O)Nc2ccc(S(N)(=O)=O)cc2)s1 (stereo not drawn)	4	10
O=C(c1cccc(C(F)(F)F)c1)N(c1ccccn1)C1CCCCC1	0	-2
O=C1CCN(C(=O)Cn2c(C(F)(F)F)nc3ccccc32)CC1	8	6
O=C(Cn1cnc2ccccc2c1=O)N1CCSC1c1ccccc1F (stereo not drawn)	14	6
Cc1ccc(Oc2ccc3c(c2)C(=O)N(CC(=O)O)C3=O)cc1C	3	2
O=C(O)c1ccc2c(c1)sc1[n+]2CCS(=O)(=O)N1	18	7
COc1cc2ccccc2cc1C(=O)OCC#N	-6	4
CC(C#N)OC(=O)c1cc(S(C)(=O)=O)ccc1Cl (stereo not drawn)	8	-5
Cn1/c(=N/N=C2\C(=O)Nc3c(Cl)cc(Cl)cc32)sc2ccccc21	20	12
N#Cc1ccc(NC(=O)Cn2cnnn2)cc1	6	10
Cc1ccc(Cn2ccsc2=NC(=O)COC(=O)Cn2c(C)csc2=O)cc1	22	6
COc1ccc(-n2c(SCC(=O)c3cc4ccccc4o3)nc3ccccc32)cc1	42	9
O=C(CCc1ccc(-c2ccccc2)o1)Nc1ccccc1C(=O)NC1CC1	6	2
Cc1ccccc1C(OCCN(C)C)c1ccccc1 (stereo not drawn)	8&0	22&7
CN(CCc1ccccn1)C(=S)NC(=O)c1ccco1	8	8
O=C(C=C1SCCS1)C1CC1c1ccccc1 (stereo not drawn)	6	1
CCn1c(N)c(C(=O)c2cccc(S(=O)(=O)N(C)C3CCCCC3)c2)c(=O)[nH]c1=O	22	10
CC1CN(S(=O)(=O)c2ccc(C(=O)NC3=NCCS3)cc2)CC(C)O1 (stereo not drawn)	-10	-14
Cn1ccnc1-c1nc2ccccc2n(CC(=O)OCc2ccc(C#N)cc2)c1=O	10	1
CC(C)Cn1c(-c2ccco2)csc1=Nc1cccnc1	16	10
Cn1c(SCC(=O)NCCN2C(=O)CSC2=S)nnc1C(F)(F)F	15	6
CCOC(=O)c1oc2ccc(Br)cc2c1CSc1nnc2ccccn12	-4	8
CC1CC(C)CN(C(=O)c2cc3c(s2)CCC3)C1 (stereo not drawn)	6	-3
O=C(CSc1nc(-c2ccccc2)c(-c2ccccc2)o1)NCCN1C(=O)CSC1=O	3	-4

Following part
SMILES	BmaI1 enzyme	BmaI1 enzyme counterscreen
C=C1/C(=C\C=C2/CCC[C@]3(C)[C@@H]([C@H](C)/C=C/[C@@H](O)C4CC4)CC[C@@H]23)C[C@@H](O)C[C@@H]1O	9	4
Cc1ccc(Nc2nc(N)nc(CSc3ccc(F)c(Cl)c3)n2)cc1	-8	-7
COc1ccc(F)cc1C(=O)CSc1nc2c3ccccc3ncn2n1	-2	-5
CC(Oc1ccc(-c2nnco2)cc1)C(=O)NC1(C#N)CCCCC1 (stereo not drawn)	10	0
O=C(Nc1ccccc1)C1Cc2ccccc2CN1C(=O)c1ccco1 (stereo not drawn)	6	6
O=C(OCc1nc2ccccc2[nH]1)C1CCCCC1	-8	-10
O=C(CSc1nnc(NC2CC2)s1)N1CCCCC1	8	-4
CCCCn1c(N)c(N(CCC(C)C)C(=O)c2ccccc2F)c(=O)[nH]c1=O	13	8
Cc1c(Cl)cn2c(=O)cc(CN3CCN(c4ccccc4O)CC3)nc2c1Cl	30	8
CC(C)(C)C(=O)COC(=O)c1ccc2c(c1)OCCO2	13	7
CCN(CC(=O)Nc1ccc2c(c1)OCCO2)c1nc(-c2cccnc2)nc2ccccc12	2	-4
Cc1nc2ccc(NS(=O)(=O)c3ccccc3C(F)(F)F)cc2s1	2	-1
Cc1ccc(Br)cc1S(N)(=O)=O	0	3
Cc1cc(-n2c(C)cc(CNC3CCN(Cc4ccccc4)C3)c2C)no1 (stereo not drawn)	9	0
CCCc1cc(=O)[nH]c(SCC(=O)c2ccc3c(c2)CCN3S(=O)(=O)CC)n1	3	6
O=C(CCc1c[nH]c2ccccc12)OCC(=O)N1CCc2ccccc21	10	4
N#CCOC(=O)c1ccc2c(c1)S(=O)(=O)N=C1CCCCCN12	6	-4
C=CCN(CC(=O)Nc1cccnc1)S(=O)(=O)c1ccc(Cl)cc1	-1	4
c1ccc(-c2nnc(Sc3ncnc4c3oc3ccccc34)o2)cc1	10	6
O=C(CSc1ccccn1)c1c[nH]c2ccccc12	30	7
COc1cccc(CNC(=O)COC(=O)C2CCN(S(=O)(=O)c3ccc(C)cc3)CC2)c1	20	12
COc1ccc(OCC(=O)N2CC(C)CC(C)C2)cc1 (stereo not drawn)	7	-8
Cc1ccc(NC(=O)CC2C=CCC2)cc1 (stereo not drawn)	14	16
C=CCn1c(SCC(=O)Nc2ccc3[nH]c(=O)[nH]c3c2)nc2ccccc2c1=O	21	12
Cc1ccc(-n2nnnc2SCC(=O)Nc2cccc3nsnc23)c(C)c1	16	10

More records.
SMILES	BmaI1 enzyme	BmaI1 enzyme counterscreen
CC(=Nc1ccc(Cl)cc1)c1cccs1	10	7
CCc1oc2ccccc2c1/C=C/C(=O)O	18	0
O=C(c1cccc(S(=O)(=O)N2CCOCC2)c1)N1N=C(c2ccccc2)CC1(O)C(F)(F)F (stereo not drawn)	9	6
Cc1ccc(CC(C#N)Sc2nnc(C(C)N3CCCCC3)n2-c2ccc(F)cc2)cc1 (stereo not drawn)	-6	-6
O=S1(=O)CCN2C(=N1)Oc1ccc(Cl)cc12	7	10
COc1ccc(N2CN(S(=O)(=O)c3ccc(NC(C)=O)cc3)c3nc4ccccc4nc32)cc1	14	6
CCOC(=O)c1c(C)[nH]c(C(=O)OCc2cccc(OC)c2)c1C	6	4
O=C(CSc1nnc(-c2ccco2)o1)N1N=C2/C(=C/c3ccco3)CCCC2C1c1ccco1 (stereo not drawn)	20	8
CC(C)Cn1c(SCC(=O)Nc2sccc2C#N)nnc1-c1ccco1	27	6
CCOC(=O)C(=NC1CCS(=O)(=O)C1)NNc1cc(C(F)(F)F)ccc1Cl (stereo not drawn)	-9	0
CC1C/C(=N\NC(=S)NC(C)C)CC(C)(C)C1 (stereo not drawn)	2	4
CSCCC(=O)Nc1nc2ccccc2[nH]1	8	4
O=C1c2ccccc2C(=O)N1/N=C/c1ccc(-c2ccccc2Br)o1	4	2
Cc1[nH]c(SCC(=O)N2CCN(CC3CCCO3)CC2)nc1Cc1ccccc1 (stereo not drawn)	51	11
COC(=O)c1c(NC(=O)CSc2nnnn2-c2ccccc2)sc2c1CCC2	-4	-10
CC(C1CC1)N(CC(F)(F)F)C(=O)CSc1nnc(-c2ccccc2Cl)o1 (stereo not drawn)	6	4
N#Cc1ccc(COc2ncnc3ccccc23)cc1	18	10
CCc1cc2c(=O)n(CC)c(SCC3CCCCO3)nc2s1 (stereo not drawn)	9	8
CCCCC(=O)O[C@H]1CC[C@H]2[C@@H]3CCc4cc(O)ccc4[C@H]3CC[C@]12C	1	6
CN(CC(=O)Nc1ccc(S(=O)(=O)N(C)C)cc1)Cc1ccc(C(F)(F)F)cc1	10	0
CCCOc1ccc(C(F)(F)F)cc1NC(=O)CN1CSCC1=O	18	8
CC1CCCC(C)N1C(=O)COC(=O)c1ccc(Br)cc1 (stereo not drawn)	8	2
COc1ccc(-c2nnc(SCC(=O)NC3CCCc4ccccc43)o2)cc1OC (stereo not drawn)	9	2
S=C(NCCN1CCOCC1)NCc1ccc2c(c1)OCO2	-4	2
CCC(C)n1nccc1NC(=O)C(C)OC(=O)c1cc2ccccc2[nH]1 (stereo not drawn)	11	9

The listing continues.
SMILES	BmaI1 enzyme	BmaI1 enzyme counterscreen
C=C1C(C(=O)Nc2ccccc2N2CCOCC2)C1C(=O)Nc1ccccc1N1CCOCC1 (stereo not drawn)	10	4
O=C(/C=C/c1ccc(F)cc1)Oc1cc(Cl)c[nH]c1=O	18	9
Cc1nnc(SCc2nc3ccccc3c(=O)[nH]2)n1C1CC1	4	0
Cc1cc(C(=O)CSc2ccccn2)c(C)n1Cc1cccs1	16	12
O=C(Cn1nnc(-c2ccc(F)cc2)n1)NCCN1C(=O)CSC1=O	10	3
Cc1ccc(S(=O)(=O)CCC(=O)OCc2nnc(-c3ccccc3Br)o2)cc1	14	6
O=C(CNS(=O)(=O)/C=C/c1ccccc1)OC1CCOC1=O (stereo not drawn)	8	2
CC(OC(=O)c1cn(C)c2ccccc12)C(=O)N(C)c1ccccc1 (stereo not drawn)	6	-2
COc1ccccc1CNC(=O)CNC1CCCCC1	12	6
CCc1ccc(C(=O)C(C)Sc2nnc(-c3ccccc3)o2)cc1 (stereo not drawn)	-12	-14
Cc1ccccc1NC(=O)COC(=O)c1cccc(S(=O)(=O)N2CCCC2)c1	14	6
O=C(CSc1nc2sc3c(c2c(=O)[nH]1)CCCC3)N1CCOCC1	18	10
Nc1nc(-c2ccccc2)c(N=Nc2ccc3c(c2)OCO3)s1	20	16
O=c1nc2n3ccsc3ncc-2s1	10	2
Cc1noc(C)c1COC(=O)CCc1nc2ccccc2s1	4	4
CN(Cc1ccccc1)C(=O)CN1CCN(S(=O)(=O)c2ccccc2F)CC1	14	8
Cc1sc(NC(=O)c2ccco2)c(CN2CCCCC2)c1C	49	10
C/C(=N\N1C(C)CCCC1C)c1ccco1 (stereo not drawn)	16	10
COC(=O)c1cc(OC)c(OC)cc1NC(=O)Nc1ccccc1OC	14	14
CCn1c(Cn2nnc3ccccc3c2=O)nc2cc(S(=O)(=O)N(C)C)ccc21	22	0
Cc1nc(C)c(C(=O)NC2CCSc3ccccc32)s1 (stereo not drawn)	14	10
CCn1c(-c2ccco2)nn(CN2CCN(S(=O)(=O)/C=C/c3ccccc3)CC2)c1=S	68	48
O=c1c(Cl)c(Cl)cnn1CN1CCCC1c1nc2ccccc2s1 (stereo not drawn)	3	10
COCCN(Cc1nnc(-c2cccs2)o1)C(=O)c1cc(Cl)c(OC(C)C)c(OC)c1	5	2
N#Cc1c(N2CCCC2)n[nH]c1N	98	85

Compound profiles (already shown). Screens in order: BmaI1 enzyme | BmaI1 enzyme counterscreen
`Cc1nc(C)c(C(=O)NC2CCSc3ccccc32)s1` (stereo not drawn) reads 14 | 10
`CCn1c(-c2ccco2)nn(CN2CCN(S(=O)(=O)/C=C/c3ccccc3)CC2)c1=S` reads 68 | 48
`COc1ccccc1CNC(=O)CNC1CCCCC1` reads 12 | 6
`O=C(CSc1nc2sc3c(c2c(=O)[nH]1)CCCC3)N1CCOCC1` reads 18 | 10
`O=C(Cn1nnc(-c2ccc(F)cc2)n1)NCCN1C(=O)CSC1=O` reads 10 | 3

(further entries)
SMILES	BmaI1 enzyme	BmaI1 enzyme counterscreen
N#CCc1ccc(N)cc1	31	-2
CCc1cccc(NC(=O)CSc2ncccn2)c1	4	-2
Cc1noc(C)c1/C=C1\N=C(C23CC4CC(CC(C4)C2)C3)OC1=O	6	2
CNC(=O)NC(=O)C(C)Sc1nnc(Nc2ccc(OC)cc2)s1 (stereo not drawn)	56	0
COc1ccc(CN(C)C(=O)CSc2nnc3sc4ccccc4n23)cc1	6	1
OC(c1ccccc1)(c1ccccc1)C1CCN(c2nnnn2-c2ccccc2)CC1	18	14
COCCn1c(SCc2nc(N)nc(Nc3ccccc3C)n2)nc2ccccc21	16	14
O=C(OCc1cc(=O)oc2cc(O)ccc12)c1nc(Cl)ccc1Cl	0	-6
O=C1c2ccccc2C(=O)N1CCSc1nc2cc(Cl)ccc2c(=O)n1Cc1ccco1	-4	-8
CS(=O)(=O)NC(CC(=O)O)c1ccccc1Cl (stereo not drawn)	20	1
CC12CC3CC(C)(C1)CC(C(=O)Nc1ccc4c(c1)OCO4)(C3)C2	10	5
CC(C)Cn1c(NN)nc2c1c(=O)[nH]c(=O)n2C	39	-24
COc1ccccc1-n1cnnc1SCC(=O)N(C)CC(=O)Nc1ccccc1Cl	6	12
Cc1ccc(O)c(C(=O)c2cc(-c3nc4ccccc4c(=O)[nH]3)n(C)c2)c1	4	0
COc1ccc(-n2cc[nH]c2=S)cc1	41	30
CC(OC(=O)c1ccc(O)cc1)C(=O)c1ccccc1 (stereo not drawn)	18	18
O=C(CSc1cccc[n+]1[O-])NC(=O)c1ccc(OC(F)F)cc1	12	6
CC(c1nc2ccccc2c(=O)[nH]1)N(C)CCOc1ccc(Cl)cc1 (stereo not drawn)	18	19
Cc1ccc(/C=C/S(=O)(=O)NCC(=O)O)cc1	12	-5
C=CCn1c(SC2CCCC2=O)nnc1-c1ccc(Cl)cc1 (stereo not drawn)	26	6
CN(C)CCOc1ccc(/C(=C(/CCCl)c2ccccc2)c2ccccc2)cc1	8	17
Cc1ccc(NC(=O)CN(C)C(=O)CSc2nccn2C)cc1	14	12
COc1ccc(S(N)(=O)=O)cc1C(=O)OCC(=O)N1c2ccccc2NC(=O)C1(C)C	8	3
CC(C)c1nnc(SCC(=O)Nc2ccc(Cl)cc2)n1N	22	12
C=CCn1c(SCC(=O)NC(=O)Nc2ccccc2F)nc2ccccc21	10	16
COc1ccc(C(=O)Nc2nccs2)c(F)c1	10	6
COc1ccccc1CN(C)C(=O)C1COc2ccccc2O1 (stereo not drawn)	-2	0

Part of the list above in order of formula weight, rising.
SMILES	BmaI1 enzyme	BmaI1 enzyme counterscreen
CC(C)c1nnc(SCC(=O)Nc2ccc(Cl)cc2)n1N	22	12
C=CCn1c(SC2CCCC2=O)nnc1-c1ccc(Cl)cc1 (stereo not drawn)	26	6
O=C1c2ccccc2C(=O)N1CCSc1nc2cc(Cl)ccc2c(=O)n1Cc1ccco1	-4	-8

Screening data from PubChem.
